Source: PubChem (several laboratories)
RGS16-Gao HTS: modulators of RGS16 binding to Galphao, primary screen, biochemical, human proteins, multiplexed bead flow cytometry; binding response (% of control), % at 10 µM; hit rate 0.38% among 220,000; bead-based flow cytometry RGS16-Galphao binding, fluorescence; actives lie on both sides; Regulator of G-protein signaling 16 (Homo sapiens) + Guanine nucleotide-binding protein …; AID 1441, 2008;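 active means below 25% or above 175%, edge rows of some plates excepted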;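 further: Galphao activated by GDP with aluminum fluoride before binding; 100% = wells without compound and 0% = beads without RGS; some results beyond the cut were filed as inactive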
Insulin prom inh: inhibitors of insulin promoter-driven GFP, primary screen, imaging, TRM-6 cells (human fetal islet line), eGFP reporter, cell count | reporter expression induced with tamoxifen | hit rate 0.9% among 130,000 | inhibition, % at 2 µM;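 active means inhibition above the mean plus 3 SD, with well images judged a real hit on visual review, cut at about 60% in these data, passing the limit was not always enough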
GALR2 agonist: GALR2 receptor agonists, primary screen, cell-based; Galanin receptor type 2 (Homo sapiens), O43603; GALR2-expressing cells, agonist activation read-out; activation, %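 (tested at 5 µM)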; hit rate 0.48% among 140,000; AID 803, 2007;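 active means above mean plus 3 SD of all compounds, about 5% in these data, not always enough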;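 further: 0% = vehicle buffer wells and 100% = reference agonist at full effect; tested in CHO reporter cells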
PKD1 inh: inhibitors of human PKD1 kinase, biochemical, fluorescence polarization; hit rate 0.056% among 200,000; inhibition, %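 (about 10 µM by stock and volumes)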; PKD1 kinase fluorescence polarization assay; Serine/threonine-protein kinase D1 (Homo sapiens), Q15139;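 active means inhibition of 50% or more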;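 further: controls were vehicle for no effect and a reference inhibitor for full effect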
Target sequence (Q15139 whole entry, looked up): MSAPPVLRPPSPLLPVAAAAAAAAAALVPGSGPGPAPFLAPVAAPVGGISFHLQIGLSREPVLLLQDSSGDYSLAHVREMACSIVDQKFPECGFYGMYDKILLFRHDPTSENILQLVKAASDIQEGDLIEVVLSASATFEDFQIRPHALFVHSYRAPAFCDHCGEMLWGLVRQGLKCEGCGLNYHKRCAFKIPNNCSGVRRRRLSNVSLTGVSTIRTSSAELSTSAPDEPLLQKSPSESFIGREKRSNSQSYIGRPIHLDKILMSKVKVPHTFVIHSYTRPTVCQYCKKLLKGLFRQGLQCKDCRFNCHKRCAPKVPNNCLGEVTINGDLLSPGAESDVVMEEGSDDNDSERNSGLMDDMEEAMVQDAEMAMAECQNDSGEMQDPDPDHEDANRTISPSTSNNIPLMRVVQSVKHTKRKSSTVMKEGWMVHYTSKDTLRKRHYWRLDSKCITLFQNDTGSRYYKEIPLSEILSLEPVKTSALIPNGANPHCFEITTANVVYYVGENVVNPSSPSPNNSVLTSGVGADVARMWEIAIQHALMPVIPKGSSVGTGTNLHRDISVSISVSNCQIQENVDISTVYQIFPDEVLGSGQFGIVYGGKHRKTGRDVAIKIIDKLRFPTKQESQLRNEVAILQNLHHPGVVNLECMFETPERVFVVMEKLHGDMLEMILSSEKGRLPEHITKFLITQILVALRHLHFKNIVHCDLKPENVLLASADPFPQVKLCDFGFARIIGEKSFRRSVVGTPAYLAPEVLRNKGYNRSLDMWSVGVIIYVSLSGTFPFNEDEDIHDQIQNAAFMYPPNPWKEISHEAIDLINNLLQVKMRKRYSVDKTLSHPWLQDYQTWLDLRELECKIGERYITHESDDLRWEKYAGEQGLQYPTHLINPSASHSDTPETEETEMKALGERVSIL
HSV replic up: enhancers of HSV replication in host cells, fold increase, host cell viability. HSV replication augmentation in cells. maximum fold increase. hit rate 0.005% among 220,000;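 active means peak rise of 1.5-fold or more in the series; tested in PC3 cells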;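 further: first round at 10 µM; read as green reporter fluorescence; hits show the peak of a series up to 25 µM; 1 = signal of infected wells without compound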
Insulin prom inh cell count: recorded beside Insulin prom inh, whose call it bears; normalized cell count, %; measured here: cell count, toxicity; reference of the scale not given here;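 cells exposed to compound for 48 h; stained nuclei by imaging scaled within each plate; lower means fewer cells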
HSV replic up primary fold: recorded beside HSV replic up, whose call it bears; fold increase; compound at 10 µM; measured here: primary screen fold increase 10 uM; tested in PC3 cells;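 GFP signal in the first replicate; 1 = infected wells without compound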
* marks the source's active call; other numbers are inactive results; i = inactive; · = not tested or not shown; [ ] = another dose, or the depositor's remark.

mol	RGS16-Gao HTS	Insulin prom inh	Insulin prom inh cell count	GALR2 agonist	PKD1 inh	HSV replic up	HSV replic up primary fold
COc1cc(OC)c(NC(=O)c2c(-c3ccccc3)noc2C)cc1Cl	96.8	79.3*	174.0*	-3.0	-5.9	i	0.95
O=S(=O)(NCCc1csc(-c2cccnc2)n1)c1ccc2c(c1)OCCO2	100.4	·	·	-2.0	-1.2	i	1.01
Cc1cc(NC(=O)C2CCN(S(=O)(=O)Cc3ccccc3)CC2)ccc1-n1cnnn1	103.3	-47.4	162.4	-0.7	-8.2	i	0.93
CC(=O)NC(=S)Nc1ccc(NC(=O)c2cccnc2)cc1	102.1	·	·	·	·	i	0.97
Cc1cccc(-n2c(-c3ccncc3)n[nH]c2=S)c1C	87.1	·	·	·	-3.6	i	0.97
CC1=CS(=O)(=O)CC1Sc1ncn[nH]1 (stereo not drawn)	96.8	-50.0	100.6	-0.4	-6.9	i	0.96
CN(C)c1nc(NCc2ccccc2)nc(SCC(=O)Nc2ccc(Cl)c(Cl)c2)n1	92.5	-6.7	61.1	-1.5	4.7	i	0.9
Cc1ccc(C)c(OCCCC(=O)Nc2ccc(N3CCOCC3)cc2)c1	114.5	-15.1	61.0	-3.7	-3.5	i	0.99
Cn1cc(P(=S)(N2CCOCC2)N2CCOCC2)cc1P(=S)(N1CCOCC1)N1CCOCC1	104.1	·	·	·	-7.7	i	1.15
Cc1ccc(N(CC(=O)NCc2ccc3c(c2)OCO3)S(=O)(=O)c2c(C)noc2C)cc1	133.2	·	·	-0.3	-6.8	i	0.75
COc1ccccc1-c1nc(-c2ccc(C)nc2OC)no1	97.2	21.0	57.1	-1.5	-7.4	i	0.92
CC1(C)Cc2nc3sc4c(N(CCO)CCO)nnnc4c3cc2CO1	102.5	-53.3	90.4	·	-1.9	i	0.95
COc1ccc(NC(=S)N(CCCN2CCOCC2)Cc2ccccn2)cc1	102.3	26.7	120.6	·	-8.2	i	0.86
COc1ccc(N2C(=O)CC(Sc3nc4c(cc3C#N)CCC4)C2=O)cc1 (stereo not drawn)	112.3	·	·	·	8.3	i	0.98
Cc1ccc(N2C(=O)C3C4C=CC(CNC(=S)N5CCN(c6cccc(C)c6)C(C)C5)(O4)C3C2=O)cc1 (stereo not drawn)	107.2	·	·	·	-7.7	i	1.08
N#CC1=C(N)OC2=C(C(=O)CCC2)C1CCc1ccccc1 (stereo not drawn)	185.4	-3.2	26.6	-0.4	-1.4	i	0.917
CC(C)CCNC(=O)C(c1cccnc1)N(Cc1ccccc1)C(=O)Cn1nnc2ccccc21 (stereo not drawn)	·	12.5	110.1	-1.2	0.3	i	1.01
O=C(Oc1cccnc1)c1ccco1	102.3	-33.3	156.4	-0.9	3.6	i	0.98
Cc1c(N2C(=O)/C(=C/C3CC=CCC3)SC2=S)c(=O)n(-c2ccccc2)n1C (stereo not drawn)	104.7	·	·	·	·	i	0.94
O=C(CSc1nc2ccccc2c(=O)n1CCC(=O)N1CCCCC1)NCc1ccccc1	104.0	-31.6	190.3	0.5	-1.3	i	0.61
CCCc1cc(=O)oc2cc(C)cc(OC(=O)c3ccco3)c12	104.1	·	·	-2.7	-4.6	i	1.08
CC(C)(C)CC(=O)Nc1nnc(-c2cccs2)s1	96.2	·	·	-0.9	-9.7	i	0.997
O=c1[nH]c(CSc2nnc(NCCCN3CCOCC3)s2)nc2cc(Cl)ccc12	98.2	38.7	78.8	2.3	-5.8	i	0.74
COc1ccc(COCCN2CCN(S(=O)(=O)c3ccc(C)cc3)CCC2=O)cc1	99.8	-104.5	104.1	-0.5	-8.4	i	0.72
CCOC(=O)C1CCN(C(=O)c2n[nH]c(=O)c3ccccc23)CC1	101.4	41.2	118.8	-0.1	-13.0	i	0.87
O=C(Nc1ccc2oc(=O)ccc2c1)c1ccco1	92.3	·	·	-1.0	-0.9	i	0.76
c1ccc(Nc2nn[nH]n2)cc1	96.5	25.8	94.2	-1.3	-21.8	i	1.03
Cc1ccc(C(c2nnnn2C2CCCC2)N2c3ccccc3CC2C)cc1 (stereo not drawn)	98.2	-64.3	35.1	-1.2	-1.6	i	1.12
N#CCCSCc1ccc(OCC(=O)O)cc1	102.8	58.3	109.0	-1.0	-9.5	i	0.92
C/C(=N\NC(=O)CN1CCN(Cc2ccccc2)CC1)c1cccs1	98.6	·	·	·	·	i	1.05
O=C(COC(=O)C12CC3CC(CC(C3)C1)C2)Nc1ccccc1F	100.7	25.0	129.2	-1.1	-4.4	i	0.95
CC(=O)Nc1ccc(-c2cc3ccccc3o2)cc1	98.7	-8.7	133.9	0.9	0.4	i	0.87
COCCSc1nnc(NC(=O)c2cc(C(=O)OC)cc([N+](=O)[O-])c2)s1	151.5	-7.1	92.9	·	-5.5	i	1.01
CCc1nnc(NC(=O)CN2CCN(c3ccc(Cl)cc3)CC2)s1	·	-117.1	93.8	-2.1	4.8	·	·
COc1cc2[nH]c3c(=O)n(CCN4CCOCC4)cnc3c2cc1OC	98.0	·	·	·	·	i	1
COc1ccc(NC(=O)c2ccc(CNc3c(N4CCCC4)c(=O)c3=O)cc2)cc1Cl	116.0	·	·	·	·	i	1.02
CCCC(=O)C1=C(O)C(C(=O)OC)C(C)(C)CC1=Nc1ccc(OC)cc1 (stereo not drawn)	114.2	-12.8	100.2	·	-0.1	i	1.04
CCCOc1ccc(/C=C2\SC(=S)N(CC3CCCO3)C2=O)cc1 (stereo not drawn)	52.8	15.8	51.6	-1.6	-15.8	i	1.04
O=C(Cc1ccccc1F)Nc1cccc2cccnc12	140.2	13.3	90.3	0.2	-8.5	i	0.94
COc1ccc(CCNC(=O)Cn2cnc3c(nnn3Cc3ccccc3F)c2=O)cc1OC	106.7	20.0	126.5	-1.7	0.3	i	0.83
COc1ccc(C(C)C)cc1S(=O)(=O)n1cnc(C)c1	99.1	3.9	89.5	-2.3	1.1	i	1.03
CCNC(=S)N(Cc1ccc2c(c1)OCO2)C1CC(=O)N(c2ccc(OC)cc2)C1=O (stereo not drawn)	31.7	-11.5	114.5	-4.3	6.2	i	0.93
O=C(N1CCOCC1)C1(c2ccccc2)CCCCC1	101.6	0.0	80.0	-2.9	-6.5	i	1
CC(C)N=c1scc(-c2cccs2)n1/N=C/c1ccc(O)c(O)c1O	84.4	27.0	101.1	0.5	-6.1	i	1.17
Cc1nn(-c2ccccc2)c(N)c1C(O)(CSc1nccn1C)C(F)(F)F (stereo not drawn)	90.4	·	·	-0.9	4.6	i	0.81
COC(=O)c1ccc(-c2ccc(/C=N/N3C(=O)C4C5C=CC(CC5)C4C3=O)o2)cc1 (stereo not drawn)	106.0	·	·	·	4.3	i	0.96
COc1cnc(-c2ccccn2)nc1NC(C)C	105.0	25.0	146.6	·	2.3	i	0.59
Cc1ccc(S(=O)(=O)CCc2nnc(NC(=O)C3CCCCC3)s2)cc1	97.6	·	·	·	·	i	0.92
Cc1c(Cl)cccc1N/C(SCC(=O)N1CCCCCC1)=C(/C#N)c1nc2ccccc2s1	102.3	·	·	-1.0	0.6	i	0.71
Cc1nc(C)c(CCNC(=O)c2ccccc2)s1	98.4	·	·	-1.0	-3.5	i	1.1

Ordered by value in HSV replic up primary fold (rising): 3 of the compounds above
SMILES	HSV replic up primary fold
COc1cc(OC)c(NC(=O)c2c(-c3ccccc3)noc2C)cc1Cl	0.95
C/C(=N\NC(=O)CN1CCN(Cc2ccccc2)CC1)c1cccs1	1.05
Cc1ccc(C(c2nnnn2C2CCCC2)N2c3ccccc3CC2C)cc1 (stereo not drawn)	1.12

Later entries
mol	RGS16-Gao HTS	Insulin prom inh	Insulin prom inh cell count	GALR2 agonist	PKD1 inh	HSV replic up	HSV replic up primary fold
CCN(CC)S(=O)(=O)c1ccc(NC(=O)c2cc(-c3cccs3)nc3ccccc23)cc1	104.9	-25.9	85.3	-0.9	-5.5	i	0.77
CN1CCN(C(=O)CCc2ccc(S(=O)(=O)NC3CCCCC3)cc2)CC1	96.5	-12.5	93.2	·	1.1	i	1
Nc1nc(-c2ccc(Cl)cc2)nn1C(=O)c1cccs1	113.2	41.7	83.9	·	-5.4	i	1.04
O=C(CCCCCNC(=O)c1ccccc1)N/N=C/c1ccccc1O	83.6	-20.0	41.9	-1.3	-12.1	i	0.94
CCn1cc(Br)c(C(=O)NCc2ccco2)n1	103.3	-355.0	47.5	-0.5	8.7	i	0.99
Cc1ccc(S(=O)(=O)N2CCN(C(=O)COc3ccc(NC(=O)c4ccco4)cc3)CC2)cc1	99.2	-106.7	91.6	12.8*	1.4	i	0.98
CCN(CC)CCC#CC(O)(c1ccccc1)c1ccccc1	119.2	·	·	-1.4	-2.4	i	1.01
CCOC(=O)c1nc(-c2ccccc2)oc1N(C)C	99.2	39.1	77.4	-2.2	-4.1	i	0.963
CCOc1ccc(N2CC(C(=O)Nc3ccc(N4CCOCC4)cc3)CC2=O)cc1 (stereo not drawn)	80.7	18.8	128.5	0.6	-5.3	i	0.88
CC(c1ccon1)N(C)Cc1cn[nH]c1-c1ccc(F)cc1F (stereo not drawn)	95.0	·	·	·	·	i	1.09
COc1ccc(-c2[nH]ncc2CN(C)C(C)c2cccs2)c(F)c1 (stereo not drawn)	97.8	·	·	·	-3.1	i	1.27
CCN(CC)S(=O)(=O)c1ccc(Cl)c(NC(=O)COC(=O)c2cccn2C)c1	101.8	·	·	·	7.7	i	0.99
COc1ccc(-c2cc3cc(OC)c(OC)cc3c(C)n2)cc1C	97.2	·	·	·	·	i	0.87
O=C(N/N=C/C=C/c1ccccc1)c1ccncc1	105.7	57.1	173.4	-1.6	4.1	i	0.95
Cc1cc(OCCOCCN2CCCC2)ccc1C(C)C	98.3	·	·	3.4	5.2	i	0.84
Cc1cc(C)nc(SCc2cccc(C(=O)O)c2)n1	99.1	-25.0	121.5	-1.2	-8.9	i	0.82
CCOC(=O)C1CCCCN1C(=O)CCc1c(C)nc2cc(-c3ccccc3)nn2c1C (stereo not drawn)	99.5	·	·	-1.6	1.0	·	·
CC(C)Cc1nn2c(=O)cc(O)nc2s1	104.8	-10.3	93.0	-0.4	-0.7	i	1.03
COc1ccc(N2C(=O)CC(N(C)CCc3ccc(OC)c(OC)c3)C2=O)cc1 (stereo not drawn)	97.3	50.0	120.9	·	-1.8	i	0.96
CCOC(=O)C1CCN(c2ccc(Cl)nn2)CC1	100.5	·	·	·	3.8	i	0.97
Cn1c(SCC(=O)NCCN2C(=O)CSC2=O)nc2ccccc2c1=O	111.0	·	·	-3.1	2.7	i	0.93
Cc1ccc(CN(Cc2cc3cc4c(cc3[nH]c2=O)OCCO4)Cc2nnnn2Cc2ccco2)cc1	88.5	-86.7	59.4	-0.6	-0.8	i	1.15
CCCOc1ncnc2c1sc1nc3c(cc12)COC(C)(C)C3	105.1	·	·	·	-5.1	i	1.04
NS(=O)(=O)c1ccc(Nc2ccc3nonc3c2[N+](=O)[O-])cc1	97.1	·	·	·	-6.0	i	0.98
Cc1cccc(NC(=O)NC(C)C(c2cccs2)N2CCOCC2)c1 (stereo not drawn)	101.6	·	·	-2.7	8.7	i	0.97
CC(C(=O)NC1CCCCC1)N1CCN(C)CC1 (stereo not drawn)	96.8	·	·	·	·	i	1.07
O=C(C(Cc1ccccc1)N1C(=O)C2C3C=CC(C3)C2C1=O)N1CCCCC1 (stereo not drawn)	104.8	7.1	110.0	2.5	-5.0	i	1
O=C1CCC/C(=N/NC(=O)C2CCN(S(=O)(=O)c3cccs3)CC2)C1	94.2	23.1	96.9	-1.2	-1.4	i	0.93
CCOC(=O)C1=C(C)NC(C)=C(C(=O)OCCNC(=O)c2cccnc2)C1c1cccc([N+](=O)[O-])c1 (stereo not drawn)	213.2*[activator]	-53.3	92.2	-1.6	-6.5	i	1.01

As entered above.
`CCOC(=O)C1CCN(c2ccc(Cl)nn2)CC1` in PKD1 inh reads 3.8
`CCOC(=O)C1CCCCN1C(=O)CCc1c(C)nc2cc(-c3ccccc3)nn2c1C` (stereo not drawn) in GALR2 agonist reads -1.6
